Compound activity (PubChem BioAssay)
total CFTR = compounds raising F508del-CFTR protein level – cell-based, HeLa F508del-CFTR, immunofluorescence, viability, primary screen (AID 1224863). HeLa F508del-CFTR, immunofluorescence total CFTR, 24 h; by the record results were divided by relative cell number; some inactives read as strong as hits. calls, or highest fold increase where a dose series was run. 10,000 compounds, 0.1% hits; in the data nearly all actives have a first-pass fold increase above 1.5; a few of its hits are not listed in these tables;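 note: total CFTR protein by anti-CFTR immunofluorescence in fixed cells; first pass at 25 µM or 10 µg/mL by library and series up to twice that; 1 = untreated cells; first-pass hits also needed half or more of the cells alive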
total CFTR fold 25 µM = also measured in total CFTR; calls as there; fold increase; measured here: primary screen single dose 25 uM; library dosed in µM
total CFTR fold 10 ug/mL = recorded beside total CFTR, whose call it bears; fold increase; measured here: primary screen 10 ug/mL
total CFTR viability 25 µM = recorded beside total CFTR, whose call it bears; viability, %; measured here: primary viability 25 uM; library dosed in µM;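 0% = killed and 100% = untreated cells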
total CFTR viability 10 ug/mL = second read-out of total CFTR, no call of its own (marks repeat the call); viability, %; measured here: primary viability 10 ug/mL;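 0% = killed and 100% = untreated cells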
* hit, by the source's call; i = inactive; / = no result given; & = joins results of further samples. Some of the compounds tested, so the mix of outcomes need not match the whole.

SMILES | total CFTR | total CFTR fold 10 ug/mL | total CFTR viability 10 ug/mL | others
CCCn1c(SCC(=O)Nc2sc3c(c2C(N)=O)CCC3)n[nH]c1=O | i | 0.92 | 92
O=C(c1cccnc1)N1CCOCC1 | i | / | / | total CFTR fold 25 µM=1;total CFTR viability 25 µM=102
CC(C)(C)c1nc(Sc2ccc([N+](=O)[O-])cc2Cl)n[nH]1 | i | 0.98 | 86
O=S(=O)(NCCC1CCCC1)c1ccc(F)cc1 | i | 0.84 | 82
O=S(=O)(NC12CC3CC(CC(C3)C1)C2)c1ccc(Cl)s1 | i | 1.1 | 107
NCc1ccccc1CC(=O)NC1C(=O)N2C(C(=O)O)=C(CSc3nnnn3CC(=O)O)CSC12 (centres undefined) | i | / | / | total CFTR fold 25 µM=1.2;total CFTR viability 25 µM=94
COc1ccc(C(=O)/C=C/c2ccc3c(c2)OCO3)c(F)c1 | i | 1.1 | 73
N#CCSc1nncc(-c2cccs2)n1 | i | 0.96 | 93
O=[N+]([O-])c1ccc(NCc2ccc3c(c2)OCO3)nc1 | i | 0.92 | 83
Cc1ccc(-n2c(Sc3ccc([N+](=O)[O-])cn3)nnc2-c2cccnc2)c(C)c1 | i | 0.79 | 78
Cc1nnc(NCC2CCCCC2)c(C#N)c1C | i | 0.98 | 106
OC1CCN(Cn2[nH]c(-c3ccc(Cl)cc3Cl)nc2=S)CC1 | i | 1 | 101
COC(=O)c1cc(C#N)c(=O)n(Cc2cc(C(C)=O)ccc2OC)c1 | i | 0.92 | 103
O=C1OCCN1/N=C/c1ccc([N+](=O)[O-])o1 | i | / | / | total CFTR fold 25 µM=0.82;total CFTR viability 25 µM=74
c1ccc(Cc2noc(CSc3nc4ccccc4o3)n2)cc1 | i | 1 | 100
OCCNCc1cn(-c2ccccc2)nc1-c1ccccc1Cl | i | 1.1 | 91
C/C=C/c1ccc(OC)cc1 | i | / | / | total CFTR fold 25 µM=1.2&1;total CFTR viability 25 µM=100&106
O=C1NC2(CCSC2)C(=O)N1CN1CCN(Cc2ccc3c(c2)CCO3)CC1 (centres undefined) | i | 0.96 | 79
Clc1ccccc1C1CCCN1Cc1nnnn1C1CC1 (centres undefined) | i | 0.94 | 72
O=C(NC1CCCCCC1)C1CC=CCC1 (centres undefined) | i | 1 | 96
O=[N+]([O-])c1ccc(-c2nnc(CSc3nc(-c4ccc(F)cc4)cs3)o2)cc1 | i | 1 | 85
Cn1ccnc1SCCN1C(=O)NC(C)(C)C1=O | i | 1 | 98
O=C(CCC1CCCC1)Nc1cn[nH]c1 | i | 0.85 | 72
CNC[C@H](O)c1cccc(O)c1 | i | / | / | total CFTR fold 25 µM=1;total CFTR viability 25 µM=96
COc1cc(OC)c(OC)cc1CNc1cc(C)nc2ccccc12 | i | 1 | 79
CCC(=O)OCC(=O)[C@@]1(OC(=O)CC)[C@@H](C)C[C@H]2[C@@H]3CCC4=CC(=O)C=C[C@]4(C)C3(F)[C@@H](O)C[C@@]21C (some centres undefined) | i | / | / | total CFTR fold 25 µM=1.2;total CFTR viability 25 µM=97
CCC1(c2ccccc2)C(=O)NCNC1=O | i | / | / | total CFTR fold 25 µM=1.3&0.96;total CFTR viability 25 µM=108&104
CC12CCC(=O)C=C1CCC1C2[C@@H](O)CC2(C)C1CC[C@]2(O)C(=O)COP(=O)(O)O (some centres undefined) | i | / | / | total CFTR fold 25 µM=1.1;total CFTR viability 25 µM=88
N#CCc1c(C#N)c(N)nc(N2CCN(S(=O)(=O)c3ccc4c(c3)OCCO4)CC2)c1C#N | i | 0.95 | 76
Cn1cnnc1SCC(=O)N1N=C(c2cccs2)CC1c1ccco1 (centres undefined) | i | 1 | 99
CCC1CCC2(CC1)NC(=O)N(CC(=O)NCC1CCCCC1)C2=O (centres undefined) | i | 1 | 89
CNCc1ccc(OCc2ccccc2)cc1 | i | 1 | 115
Cc1cc(NS(=O)(=O)c2ccc(NS(=O)(=O)c3ccc4c(c3)OCCO4)cc2)nc(C)n1 | i | 0.97 | 115
C#C[C@]1(O)CCC2C3CCC4=CC(=O)CC[C@@H]4C3CC[C@@]21C (some centres undefined) | i | / | / | total CFTR fold 25 µM=1;total CFTR viability 25 µM=85
c1ccc(Cn2nnnc2SCc2cc(-c3ccccc3)no2)cc1 | i | 0.99 | 93
Cc1ccc(CN(C)S(=O)(=O)N2CCC(C)CC2)c(C)c1 | i | 0.95 | 86
O=C(NCC1CCCCN1)c1cc(OCC(F)(F)F)ccc1OCC(F)(F)F (centres undefined) | i | / | / | total CFTR fold 25 µM=1.2;total CFTR viability 25 µM=83
CC(=O)NC[C@H]1CN(c2ccc(N3CCOCC3)c(F)c2)C(=O)O1 | i | / | / | total CFTR fold 25 µM=1.1&0.98&1;total CFTR viability 25 µM=102&106&85
S=c1n(CN2CCc3ccccc3C2)nc(-c2ccco2)n1-c1ccccc1 | i | 1 | 110
Cn1cc(/C=C/C(=O)Nc2nccs2)cn1 | i | 1.1 | 103
C[C@@H]1CC2C3CCC4=CC(=O)C=C[C@]4(C)[C@@]3(F)[C@@H](O)C[C@]2(C)[C@@]1(O)C(=O)CO (some centres undefined) | i | / | / | total CFTR fold 25 µM=1.2;total CFTR viability 25 µM=88
Cc1ccc(OCC(O)CN2CC3(C)CC2CC(C)(C)C3)cc1 (centres undefined) | i | 1.1 | 90
C[C@H](NC(=O)C12CC3CC(CC(C3)C1)C2)C(=O)O | i | 1.1 | 113
CCn1c(-c2ccco2)nn(CN2CCCC2c2cccs2)c1=S (centres undefined) | i | 1.1 | 93
CC1CN(Cn2c(=O)oc3cc(Cl)ccc32)CCO1 (centres undefined) | i | 0.94 | 97
Cc1cc(=O)n2cn[nH]c2n1 | i | 1.2 | 101
COc1ccc(Br)cc1CN(C)c1ncccc1[N+](=O)[O-] | i | 1.1 | 86
c1ccc2c(CSc3nnnn3C3CCCC3)cccc2c1 | i | 0.91 | 89
Cc1noc(C)c1S(=O)(=O)NCCc1ccc(C(F)(F)F)cc1 | i | 0.93 | 89
Cc1nc2sccn2c(=O)c1CCN1CCC(=C(c2ccc(F)cc2)c2ccc(F)cc2)CC1 | i | / | / | total CFTR fold 25 µM=1.1;total CFTR viability 25 µM=77
COC(=O)c1ccc2[nH]c3c(c2c1)CN(C(=O)C1(C)CC1(Cl)Cl)CC3 (centres undefined) | i | 0.87 | 83
CC(Cc1cccs1)NS(=O)(=O)N1CCOCC1 (centres undefined) | i | 1.1 | 103
CS(=O)(=O)NCC1CCCCN1Cc1csc(-c2ncccn2)n1 (centres undefined) | i | 0.94 | 112
CN(CCN1C(=O)CCC1=O)Cc1ccc(Br)cc1 | i | 1.2 | 106
C=C[C@@]1(C)CC(=O)[C@@]2(O)[C@](C)(O1)[C@@H](OC(C)=O)[C@@H](O)C1C(C)(C)CC[C@H](O)[C@@]12C (some centres undefined) | i | / | / | total CFTR fold 25 µM=1.2;total CFTR viability 25 µM=98
COc1ccc(Cn2nnnc2SCC(O)COc2ccc(-c3ccccc3)cc2)cc1 (centres undefined) | i | 1.2 | 76
C=CC(N)CCC(=O)O (centres undefined) | i | / | / | total CFTR fold 25 µM=1;total CFTR viability 25 µM=105
Cc1ccc(S(=O)(=O)c2ccc(CN(CC3CCOC3)C3CC3)cc2)cc1 (centres undefined) | i | 0.92 | 100
C[C@]12C=CC(=O)C=C1CCC1C3C[C@@H](O)[C@](O)(C(=O)CO)[C@@]3(C)C[C@H](O)[C@@]12F (some centres undefined) | i | / | / | total CFTR fold 25 µM=1.3;total CFTR viability 25 µM=96
CC(=O)OCC(=O)[C@@]1(O)CC[C@H]2[C@@H]3CCC4=CC(=O)C=C[C@]4(C)[C@H]3[C@@H](O)C[C@@]21C | i | / | / | total CFTR fold 25 µM=1.2;total CFTR viability 25 µM=92

(further entries)
SMILES | total CFTR | total CFTR fold 10 ug/mL | total CFTR viability 10 ug/mL | others
CSCCC(C(=O)NC1CCOc2ccccc21)N1C(=O)C2CCCCC2C1=O (centres undefined) | i | 1.2 | 102
CN(Cc1ccc2c(c1)OCCO2)C(=O)NC1CCC(C(F)(F)F)CC1 (centres undefined) | i | 0.95 | 86
O=C1CCN(C(=O)c2cc([N+](=O)[O-])c[nH]2)CCN1 | i | 0.96 | 95
CN(C)S(=O)(=O)N1CCN(S(=O)(=O)c2cccc(F)c2)CC1 | i | 1.1 | 106
CCOC(=O)OC(C)OC(=O)C1N2C(=O)C(NC(=O)[C@H](N)c3ccccc3)C2SC1(C)C (some centres undefined) | i | / | / | total CFTR fold 25 µM=1.1;total CFTR viability 25 µM=113
O=S(=O)(/C=C/c1ccccc1)NCC1(c2ccccc2)CC1 | i | 0.97 | 83
CCCSc1ccc2nc(NC(=O)OC)[nH]c2c1 | i | / | / | total CFTR fold 25 µM=0.74&0.71&0.69;total CFTR viability 25 µM=75&79&72
CN1CCN(S(=O)(=O)N2CCN(c3ccc(C(F)(F)F)cn3)CC2)CC1 | i | 0.86 | 88
CN(Cc1ccc2c(c1)OCO2)S(=O)(=O)N1CCOCC1 | i | 1.1 | 94
CS(=O)(=O)c1ccc(NC2CCOc3ccccc32)c([N+](=O)[O-])c1 (centres undefined) | i | 0.99 | 83
O=S(=O)(Nc1cccc(-c2n[nH]c3c2CCC3)c1)C1=Cc2ccccc2CC1 | i | 0.87 | 81
O=c1ccc2cccc(O)c2[nH]1 | i | 0.96 | 100
COc1cc(OC)cc(C(Nc2ccc([N+](=O)[O-])cc2C#N)c2nccn2C)c1 (centres undefined) | i | 1.1 | 102
Cc1cc(N)c2ccccc2[n+]1CCCCCCCCCC[n+]1c(C)cc(N)c2ccccc21 | i | / | / | total CFTR fold 25 µM=0.79;total CFTR viability 25 µM=85
N#Cc1cc([N+](=O)[O-])ccc1Nc1ccc(OCC2CCCO2)cc1 (centres undefined) | i | 0.83 | 83
O=C(NC1CCCC(OCC(F)(F)F)C1)c1cnc2c(c1)c(=O)[nH]c(=O)n2C1CC1 (centres undefined) | i | 1.1 | 97
O=S(=O)(NCc1ccc(S(=O)(=O)N2CCCC2)s1)c1ccc(Cl)c(Cl)c1 | i | 0.85 | 76
CCN(CCCNS(=O)(=O)c1cc(Br)ccc1OC)C(=O)OC(C)(C)C | i | 1 | 99
CSCCC(NC(N)=O)C(=O)Nc1ccc(N2CCCC2=O)c(C)c1 (centres undefined) | i | 0.84 | 85
CCCN(CN1C(=O)NC2(C1=O)C(C)CCCC2C)CC(F)(F)F (centres undefined) | i | 1 | 95
N#CCCCSc1nnc(-c2ccc3c(c2)OCO3)n1-c1ccccc1 | i | 0.91 | 94
COc1cc(Br)c(S(=O)(=O)N2CCc3ccccc3C2)cc1OC | i | 1 | 100
N#CCSc1nnnn1C1CC1 | i | 1.1 | 99

Compounds above containing two or more sulfur atoms, in the order listed:
SMILES | total CFTR | total CFTR fold 10 ug/mL | total CFTR viability 10 ug/mL | others
CCCn1c(SCC(=O)Nc2sc3c(c2C(N)=O)CCC3)n[nH]c1=O | i | 0.92 | 92
O=S(=O)(NC12CC3CC(CC(C3)C1)C2)c1ccc(Cl)s1 | i | 1.1 | 107
NCc1ccccc1CC(=O)NC1C(=O)N2C(C(=O)O)=C(CSc3nnnn3CC(=O)O)CSC12 (centres undefined) | i | / | / | total CFTR fold 25 µM=1.2;total CFTR viability 25 µM=94
N#CCSc1nncc(-c2cccs2)n1 | i | 0.96 | 93
O=[N+]([O-])c1ccc(-c2nnc(CSc3nc(-c4ccc(F)cc4)cs3)o2)cc1 | i | 1 | 85
Cn1cnnc1SCC(=O)N1N=C(c2cccs2)CC1c1ccco1 (centres undefined) | i | 1 | 99
Cc1cc(NS(=O)(=O)c2ccc(NS(=O)(=O)c3ccc4c(c3)OCCO4)cc2)nc(C)n1 | i | 0.97 | 115
CCn1c(-c2ccco2)nn(CN2CCCC2c2cccs2)c1=S (centres undefined) | i | 1.1 | 93
CC(Cc1cccs1)NS(=O)(=O)N1CCOCC1 (centres undefined) | i | 1.1 | 103
CS(=O)(=O)NCC1CCCCN1Cc1csc(-c2ncccn2)n1 (centres undefined) | i | 0.94 | 112
CN(C)S(=O)(=O)N1CCN(S(=O)(=O)c2cccc(F)c2)CC1 | i | 1.1 | 106
O=S(=O)(NCc1ccc(S(=O)(=O)N2CCCC2)s1)c1ccc(Cl)c(Cl)c1 | i | 0.85 | 76
